Source: PubChem BioAssay
gsp ag – activates gsp, the McCune-Albright syndrome mutation; Potency, µM (highest dose often 76.9 µM), inactives show at the top dose activation (cAMP increase), usual class: activators; gsp mutant cells, cAMP HTRF, 30 min; control for the full effect not named in the record; AID 624287; actives 0.13% (n = 340,000); active = well fitted activation curve with a large enough effect; inconclusive = small, poorly fitted or top-dose-only effect, or another doubt; inactive = no such curve, though single readings can be large or run the other way; cell line not stated here;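 further: phosphodiesterase inhibitor Ro 20-1724 added with compounds to block cAMP breakdown; potency means the concentration at half of the fitted maximal effect; nearly all actives have a fitted effect of over 60% in size; about a fifth of the inactives were tested at one dose only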
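Cells stably selected in G418 were plated at 2000/well, grown 16-24 hr, then given compounds in DMSO with the PDE inhibitor […] (300 uM solution added) for 30 min at 37C; cAMP was read by HTRF.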
D2 agonist – agonists of human D2 dopamine receptor (beta-arrestin); activation, % (no concentration beside the values); actives 0.084% (n = 360,000); DiscoveRx PathHunter D2 beta-arrestin, luminescence, 90 min; 100% = 57 uM dopamine signal; in the data active = activation above about 40%; inconclusive = about 15% to 40%; inactive = below about 15%; further: compound concentration not given in the record; the text of the record calls up to 30% inactive
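DiscoveRx PathHunter D2 beta-arrestin cells (2,100/well) attached overnight, then compound-stimulated 90 min at 37 C in HBSS/10 mM HEPES/0.1% Tween-20 buffer; beta-galactosidase complementation read by luminescence after 1 h at ambient temperature. Dopamine 57 uM final (EC100) as control.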
CtBP-E1A inh – inhibitors of CtBP/E1A interaction; AlphaScreen GST-E1A/His-CtBP binding, 1536-well; active compounds read low; control for the full effect not named in the record; activity change, % (concentration not given with the values); actives 0.49% (n = 340,000); AID 651724; in the data active means activity change below about -65%; inconclusive means about -30% to -65%; inactive means above about -30%; further: on the % scale 0 is the no-effect control and ±100 the full control effect
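GST-E1A and His-tagged CtBP (125 nM each as 5X stock) were preincubated with pin-transferred compound for 2 h at 37 °C in the dark, then glutathione donor and nickel acceptor beads were added for 1 h before AlphaScreen reading.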
gsp antag – gsp mutant antagonism. AID 624288. Potency, µM (highest dose often 76.9 µM), for the others: at the top dose activity change, negative = inhibition, usual class: inhibitors. actives 0.4% (n = 340,000). gsp-mutant cells, cAMP HTRF, 30 min; control for the full effect not named in the record; active = falling curve of any shape with a large fitted effect; inconclusive = falling curve, mostly with a smaller effect; inactive = flat or rising curve; cell line not stated here;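 further: intracellular cAMP measured with PDE inhibitor Ro 20-1724 present during compound exposure; potency means the concentration at half of the fitted maximal effect; on the % scale 0 is the no-effect control and ±100 the full control effect; nearly all actives have a fitted effect of over 65% in size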
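HTRF cAMP measurement after 30 min RT detection following 30 min, 37C compound treatment alongside […] (added as 300 uM solution) in G418-selected cells seeded at 2000/well and grown 16–24 h.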
Six1-Eya2 blk – Six1/Eya2 interaction inhibition; Q15475+O00167; AlphaScreen GST-Six1/His-Eya2 binding, biochemical; active compounds read low; control for the full effect not named in the record; activity change, % (test concentration not listed); actives 0.56% (n = 360,000); AID 651725; in the data active = activity change below about -65%; inconclusive = about -30% to -65%; inactive = above about -30%; further: on the % scale 0 is the no-effect control and ±100 the full control effect
Target sequence (O00167 whole entry, looked up): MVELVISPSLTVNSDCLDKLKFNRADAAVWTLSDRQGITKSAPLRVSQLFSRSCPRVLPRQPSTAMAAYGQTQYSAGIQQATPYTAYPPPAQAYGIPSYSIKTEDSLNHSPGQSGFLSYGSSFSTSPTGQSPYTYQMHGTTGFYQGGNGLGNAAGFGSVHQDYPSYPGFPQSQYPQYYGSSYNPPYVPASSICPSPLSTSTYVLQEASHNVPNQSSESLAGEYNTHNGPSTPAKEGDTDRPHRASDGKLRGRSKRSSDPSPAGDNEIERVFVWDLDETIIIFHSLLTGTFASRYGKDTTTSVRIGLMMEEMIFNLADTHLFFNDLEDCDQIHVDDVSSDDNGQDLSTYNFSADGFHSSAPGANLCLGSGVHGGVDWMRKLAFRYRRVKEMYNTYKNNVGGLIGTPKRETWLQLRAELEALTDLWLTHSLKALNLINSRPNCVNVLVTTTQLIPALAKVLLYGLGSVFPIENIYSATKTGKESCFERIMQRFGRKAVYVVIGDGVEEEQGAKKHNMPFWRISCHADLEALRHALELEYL
Target sequence (Q15475 whole entry, looked up): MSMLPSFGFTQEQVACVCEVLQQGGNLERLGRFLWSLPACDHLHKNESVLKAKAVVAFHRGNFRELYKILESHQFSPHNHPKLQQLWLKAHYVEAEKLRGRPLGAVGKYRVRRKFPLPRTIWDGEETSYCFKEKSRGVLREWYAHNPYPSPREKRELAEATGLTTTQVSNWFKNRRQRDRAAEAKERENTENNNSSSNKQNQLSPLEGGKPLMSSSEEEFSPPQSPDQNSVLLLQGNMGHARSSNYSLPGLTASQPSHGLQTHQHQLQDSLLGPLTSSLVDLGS
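Homogeneous AlphaScreen proximity assay pairing GST-Six1 with His-tagged Eya2 (added as 5X mix: 250 nM and 500 nM) in 50 mM Tris pH 8.0, 300 mM NaCl, 1 mM TCEP. Glutathione donor and nickel acceptor beads; 1 h, 37 °C, dark.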
D2 potentiator – positive allosteric modulators of human D2 dopamine receptor; AID 624464; potentiation, % (test concentration not listed); P14416; DiscoveRx D2 beta-arrestin cells, luminescence, 90 min; 100% = 57 uM dopamine signal; actives 0.23% (n = 360,000); active = potentiation of 50% or more; inconclusive = 30% to 50%; inactive = 30% or less;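 further: compound concentration not given in the record; tested on top of an EC20 dose of dopamine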
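PathHunter beta-arrestin assay in DiscoveRx D2 cells. Compounds were added with an EC20 of dopamine (50 nM final) for 90 min at 37 deg C. Luminescence was read 1 h after detection reagent, with 57 uM dopamine as the EC100 control.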
* = called active by the depositor; [ ] = another dose, or the depositor's remark.

Results for CCC(C)NCCOCCOc1ccc(F)cc1 (stereo not drawn) ?
gsp ag: inconclusive; D2 agonist: -6.1; CtBP-E1A inh: 4.0; gsp antag: 7.7%; Six1-Eya2 blk: 2.4; D2 potentiator: -33.7

Results for Cc1nc(C(F)(F)F)ccc1C(=O)N1CCC1(C)C(=O)NS(=O)(=O)c1ccc(F)cc1F (stereo not drawn) ?
D2 agonist: 7.6; CtBP-E1A inh: 5.3; Six1-Eya2 blk: -0.3; D2 potentiator: -1.9

How did c1ccn2c(SCc3cn4ccsc4n3)nnc2c1 do in these assays?
gsp ag: 0.3%; D2 agonist: -1.0; CtBP-E1A inh: 5.3; gsp antag: 1.7%; Six1-Eya2 blk: 5.9; D2 potentiator: 25.4

What do the screens show for `C[C@@H]1CN([C@@H](C)CO)C(=O)CCCn2cc(nn2)CO[C@H]1CN(C)C(=O)OCc1ccccc1`?
gsp ag: inconclusive; D2 agonist: -2.9; CtBP-E1A inh: 0.0; Six1-Eya2 blk: 17.0; D2 potentiator: -3.1

What do the screens show for `O=C(O)c1c(NC(=O)N2CCCC2)sc2c1CCCC2`?
gsp ag: -5.5%; D2 agonist: -2.1; CtBP-E1A inh: -0.7; gsp antag: -18.2%; Six1-Eya2 blk: 3.3; D2 potentiator: 1.0

How did C=CCc1ccc(OCCOc2cccc(/C=N/n3cnnc3)c2)c(OC)c1 do in these assays?
gsp ag: -32.7%[inhibitor]; D2 agonist: 1.2; CtBP-E1A inh: -14.1; gsp antag: -6.3%; Six1-Eya2 blk: -5.6; D2 potentiator: 3.8

Results for Cc1ccc(OCCC(=O)Nc2ccccc2C(=O)N2CCCCC2)cc1 ?
gsp ag: -6.3%[15.4 µM]; D2 agonist: 1.7; CtBP-E1A inh: 5.1; gsp antag: 2.8%; Six1-Eya2 blk: 4.2; D2 potentiator: 0.8

Results for Cc1ccc(C)c(N2CCN(C(=O)CCS(=O)(=O)c3ccc4c(c3)NC(=O)C(C)S4)CC2)c1 (stereo not drawn) ?
gsp ag: 28.5%; D2 agonist: 1.0; gsp antag: inconclusive; Six1-Eya2 blk: 4.2; D2 potentiator: -4.5

Results for CCOC(=O)Cc1nnc(NC(=O)C2CCCCC2)s1 ?
gsp ag: 1.7%; D2 agonist: 0.1; CtBP-E1A inh: 1.1; gsp antag: 2.3%; Six1-Eya2 blk: 1.5; D2 potentiator: 1.1

Results for CCc1n[nH]c(=S)n1/N=C/c1ccc(N(CC)CC)cc1 ?
gsp ag: -7.1%[15.4 µM]; D2 agonist: -5.8; CtBP-E1A inh: 1.7; gsp antag: inconclusive; Six1-Eya2 blk: -11.9; D2 potentiator: -40.3

What do the screens show for `NC(=O)c1ccsc1NC(=O)COC(=O)Cc1cccc2ccccc12`?
gsp ag: 32.4%; D2 agonist: 1.2; CtBP-E1A inh: -1.4; gsp antag: 35.5µM*; Six1-Eya2 blk: -2.5; D2 potentiator: 16.0

Results for O=C(CSc1nc2scc(-c3ccccc3)c2c(=O)[nH]1)N1CCOCC1 ?
gsp ag: 5.0%; D2 agonist: -2.8; CtBP-E1A inh: -3.7; gsp antag: -35.2%; Six1-Eya2 blk: -1.6; D2 potentiator: inconclusive

What do the screens show for `COc1cccc(CN2C(=O)c3cccc(N)c3C2=O)c1`?
gsp ag: inconclusive; D2 agonist: 2.5; CtBP-E1A inh: -15.7; gsp antag: -3.3%; Six1-Eya2 blk: 44.2; D2 potentiator: -8.0

Results for COc1ccc(OC)c(S(=O)(=O)N2CCCC(C(=O)NCCN3CCOCC3)C2)c1 (stereo not drawn) ?
gsp ag: 2.9%; D2 agonist: -1.0; CtBP-E1A inh: -2.3; gsp antag: 4.3%; Six1-Eya2 blk: 3.4; D2 potentiator: -7.3

What do the screens show for `COc1ccnc(Oc2ccccc2)c1C(=O)N/C=N/OCc1ccccc1F`?
gsp ag: -2.3%[15.4 µM]; D2 agonist: 4.7; CtBP-E1A inh: -1.3; gsp antag: 3.6%; Six1-Eya2 blk: -4.5; D2 potentiator: 6.3

What do the screens show for `CN(Cc1c(F)cccc1Cl)C(=O)c1ccc(COc2ccccc2)cc1`?
gsp ag: -13.1%; D2 agonist: 0.0; CtBP-E1A inh: -5.4; gsp antag: -6.4%; Six1-Eya2 blk: 17.1; D2 potentiator: -3.5

Results for O=C(N/N=C/c1ccncc1)c1ccccc1 ?
gsp ag: -2.9%; D2 agonist: 0.0; CtBP-E1A inh: -2.3; gsp antag: -2.1%; Six1-Eya2 blk: -20.2; D2 potentiator: -7.4

Results for CCOC(=O)c1cc2sccc2n1CC(=O)N1CCN(C(=O)c2ccco2)CC1 ?
gsp ag: -28.3%; D2 agonist: -2.7; CtBP-E1A inh: 13.1; gsp antag: -14.4%; Six1-Eya2 blk: -0.9; D2 potentiator: -14.3

How did Cc1ccc(COC(=O)c2cccc(S(=O)(=O)N3CCCCCC3)c2)cc1 do in these assays?
gsp ag: -3.4%; D2 agonist: 0.4; CtBP-E1A inh: 3.6; gsp antag: -12.1%; Six1-Eya2 blk: 35.8; D2 potentiator: -13.6

What do the screens show for `O=C(O)C1CCN(C(=O)CSc2nnc(-c3ccccc3)o2)CC1`?
gsp ag: -21.5%; D2 agonist: -1.2; CtBP-E1A inh: 6.0; gsp antag: 5.3%; Six1-Eya2 blk: 6.6; D2 potentiator: -1.8

The final 3 entries of the part above lead into the next.
Results for CCOC(=O)c1cc2sccc2n1CC(=O)N1CCN(C(=O)c2ccco2)CC1 ?
gsp ag: -28.3%; D2 agonist: -2.7; CtBP-E1A inh: 13.1; gsp antag: -14.4%; Six1-Eya2 blk: -0.9; D2 potentiator: -14.3

How did Cc1ccc(COC(=O)c2cccc(S(=O)(=O)N3CCCCCC3)c2)cc1 do in these assays?
gsp ag: -3.4%; D2 agonist: 0.4; CtBP-E1A inh: 3.6; gsp antag: -12.1%; Six1-Eya2 blk: 35.8; D2 potentiator: -13.6

What do the screens show for `O=C(O)C1CCN(C(=O)CSc2nnc(-c3ccccc3)o2)CC1`?
gsp ag: -21.5%; D2 agonist: -1.2; CtBP-E1A inh: 6.0; gsp antag: 5.3%; Six1-Eya2 blk: 6.6; D2 potentiator: -1.8

What do the screens show for `O=C1C2C3C=CC(C2C(=O)N1c1ccc(O)cc1)C1C2C(=O)N(c4ccc(O)cc4)C(=O)C2C31` (stereo not drawn)?
gsp ag: inconclusive; D2 agonist: 0.2; CtBP-E1A inh: -3.5; gsp antag: 5.9%; Six1-Eya2 blk: -4.3; D2 potentiator: -1.2

Results for N#CC1=C(N)Oc2n[nH]c(-c3ccc(F)cc3)c2C1c1cccnc1 (stereo not drawn) ?
gsp ag: -0.2%[15.4 µM]; D2 agonist: -2.6; CtBP-E1A inh: -8.2; gsp antag: -1.0%; Six1-Eya2 blk: -6.6; D2 potentiator: -6.3

What do the screens show for `Cc1cccc(C(=O)NCC(=O)OCC(=O)c2ccc(Cl)s2)c1`?
gsp ag: inconclusive; D2 agonist: -4.5; CtBP-E1A inh: -0.2; gsp antag: -4.7%; Six1-Eya2 blk: 1.2; D2 potentiator: -8.3

What do the screens show for `CCCOc1ccc(CCC(=O)N/N=C/c2ccc([N+](=O)[O-])o2)cc1`?
gsp ag: -65.5%[inhibitor]; D2 agonist: inconclusive; gsp antag: -6.5%; Six1-Eya2 blk: -2.7; D2 potentiator: 12.2

How did COc1ccc(Cc2n[nH]c(=S)o2)cc1 do in these assays?
gsp ag: 17.5%[15.4 µM]; D2 agonist: 0.6; CtBP-E1A inh: -4.5; gsp antag: -0.5%; Six1-Eya2 blk: 3.1; D2 potentiator: -1.0

How did NS(=O)(=O)c1cccc(NC(=O)Nc2ccccc2)c1 do in these assays?
gsp ag: 4.0%[15.4 µM]; D2 agonist: 2.3; CtBP-E1A inh: -3.9; gsp antag: 3.5%; Six1-Eya2 blk: -3.9; D2 potentiator: -6.6

How did CCOC(=O)N1CCN(C(=O)c2cn(C)c3ccc(S(=O)(=O)N(CC)CC)cc3c2=O)CC1 do in these assays?
gsp ag: 17.8%; D2 agonist: 0.6; gsp antag: 13.2%; Six1-Eya2 blk: 3.0; D2 potentiator: -3.0

Results for CC#Cc1cc2c(cc1O)CCC1C2CCC2(C)C(O)CCC12 (stereo not drawn) ?
gsp ag: inconclusive; D2 agonist: 3.0; CtBP-E1A inh: 2.9; gsp antag: 26.1%; Six1-Eya2 blk: -8.9; D2 potentiator: -7.3

Results for CCC(N=c1cc(-c2ccc(OC)c(OC)c2)oc2ccc(C)cc12)C(=O)O (stereo not drawn) ?
gsp ag: 28.3%; D2 agonist: 0.6; CtBP-E1A inh: -3.4; gsp antag: 9.1%; Six1-Eya2 blk: -19.0; D2 potentiator: -12.5

How did CCn1c(SCC(=O)Nc2nccc(C)n2)nc2ccccc21 do in these assays?
gsp ag: 4.3%[15.4 µM]; D2 agonist: 0.4; CtBP-E1A inh: 6.8; gsp antag: -2.3%; Six1-Eya2 blk: -8.6; D2 potentiator: -5.4

Results for C=C(C)Cn1c(SCC(=O)O)nnc1-c1ccc(OC)cc1 ?
gsp ag: 13.1%; D2 agonist: -2.4; CtBP-E1A inh: 2.2; gsp antag: -10.3%; Six1-Eya2 blk: 20.7; D2 potentiator: -9.5

Results for COC(=O)/C=c1\sc2n(c1=O)C(C)=CC(C)(C)N=2 ?
gsp ag: inconclusive; D2 agonist: -1.4; CtBP-E1A inh: 5.2; gsp antag: 1.1%; Six1-Eya2 blk: 0.7; D2 potentiator: 0.2

How did NC(=O)C1CC(=O)N(c2ccc(OCC(=O)NCc3ccccc3)cc2)C1 (stereo not drawn) do in these assays?
gsp ag: -12.0%; D2 agonist: -2.3; CtBP-E1A inh: 6.2; gsp antag: 0.4%; Six1-Eya2 blk: -1.7; D2 potentiator: -7.0

Results for C/C(=C/C(=O)Nc1cccc(F)c1)N1CCCC1 ?
gsp ag: -0.7%[15.4 µM]; D2 agonist: 1.5; CtBP-E1A inh: 1.0; gsp antag: 3.4%; Six1-Eya2 blk: 19.8; D2 potentiator: -0.4

What do the screens show for `CS(=O)(=O)N(CC(=O)Nc1cccc(Cl)c1)c1ccccc1Cl`?
gsp ag: -27.6%; D2 agonist: -2.4; CtBP-E1A inh: 8.6; gsp antag: -5.1%; Six1-Eya2 blk: -0.9; D2 potentiator: -11.7

What do the screens show for `O=C(CCNS(=O)(=O)c1cccs1)N1CCN(c2cccc(C(F)(F)F)c2)CC1`?
gsp ag: -37.7%; D2 agonist: 0.8; CtBP-E1A inh: 6.1; gsp antag: -10.8%; Six1-Eya2 blk: 4.6; D2 potentiator: -0.3

What do the screens show for `O=C(NC1CCCCC1)C(c1ccc2ncccc2c1)N(Cc1cccs1)C(=O)c1cccs1` (stereo not drawn)?
gsp ag: -3.6%; D2 agonist: 3.2; CtBP-E1A inh: -1.8; gsp antag: -23.8%; Six1-Eya2 blk: -2.3; D2 potentiator: 1.5
